FGF22 binding – FGF22 (human) thermal shift binding | recombinant FGF22 thermal shift, SYPRO orange fluorescence; percent of sucrose octasulfate shift, DMSO zero | calls only at 9.99 µM | 1.5% of 340,000 active;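 active = melting point raised past a set limit in the mean and every replicate; three in four hits are not shown here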
HNF4A DNA FP – change in binding of human HNF4 alpha to DNA | HNF4a-FITC DNA binding, fluorescence polarization, 1 h | activity change, % at 10 µM | 0.3% of 360,000 active | AID 1224865; in the data active = activity change above about 30%, passing the limit was not always enough;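 note: controls were the assay level and a saturating level of protein; the project sought stronger binding though the title names inhibitors; some compounds called inactive have numbers as strong as hits; positive values seem to mean higher polarization but the record does not say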
E coli growth – inhibitors of Escherichia coli growth; AID 1053175; 0.21% of 330,000 active; OD600 absorbance (test concentration not listed); OD600, 23 h; active compounds read low;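 active = OD600 absorbance below the run mean of sample wells minus 3.6 SD, in any replicate, cut at about 0.56 in these data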;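 note: stock transfer was 300 nL into about 60 µL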
AF4-AF9 inh – blocks AF4 peptide binding to human AF9; AlphaScreen, biotin-AF4 peptide binding to FLAG-AF9; inhibition, % at 10 µM; 0.47% of 350,000 active; AID 651704;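 active = every replicate reaching a set inhibition limit, whatever the replicate mean, cut at about 25% in these data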;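 note: 0% = plate neutral control median and 100% = total signal loss; the record names both 10 and 1 µM as test concentration; the first replicate is given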
Target sequence (P42568 whole entry, looked up): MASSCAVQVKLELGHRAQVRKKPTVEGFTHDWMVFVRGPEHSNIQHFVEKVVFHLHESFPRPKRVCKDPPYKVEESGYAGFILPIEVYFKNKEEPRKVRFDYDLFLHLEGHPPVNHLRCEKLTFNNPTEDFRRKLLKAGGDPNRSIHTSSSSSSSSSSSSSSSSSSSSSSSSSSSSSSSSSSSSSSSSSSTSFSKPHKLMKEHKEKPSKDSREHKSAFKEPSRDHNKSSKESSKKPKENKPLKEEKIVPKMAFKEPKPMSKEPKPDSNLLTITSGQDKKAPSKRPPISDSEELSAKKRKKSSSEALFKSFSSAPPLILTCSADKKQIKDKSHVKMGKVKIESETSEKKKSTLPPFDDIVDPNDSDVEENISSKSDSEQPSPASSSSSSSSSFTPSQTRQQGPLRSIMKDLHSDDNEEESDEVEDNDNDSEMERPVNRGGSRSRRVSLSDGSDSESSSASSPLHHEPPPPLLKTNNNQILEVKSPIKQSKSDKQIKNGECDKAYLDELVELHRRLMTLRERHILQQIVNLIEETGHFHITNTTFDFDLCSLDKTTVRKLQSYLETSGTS
rRNA inh HTS – selective bacterial rRNA inhibition in E. coli. GFP signal change (wild-type ribosome), % (test concentration not listed). E. coli WT GFP vs humanized-ribosome RFP mutants, fluorescence, 24 h; active compounds read low; DMSO median 0, no signal -100. 1.6% of 350,000 active;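 active = significant combined selectivity score with lowered wild-type GFP, culture density cut under 30%, mutant RFP and density less affected; inactive = any of these conditions unmet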; note: one replicate is shown; some compounds called inactive have numbers as strong as hits
Vif A3G – HIV-1 Vif–A3G interaction blockers – biochemical, TR-FRET, GST-Vif 1-94, biotin-A3G peptide, dose response retest, primary screen (AID 1117319). TR-FRET GST-Vif / biotin-A3G peptide binding; higher % means a stronger effect; test concentration not given here; strong numbers were not always called active. one-dose inhibition, %; IC50 in µM for titrated hits. 0.57% of 260,000 active;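 active = above the screen mean plus three standard deviations and confirmed in dose response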;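 note: Vif residues 1-94 fused to GST binding biotinylated APOBEC3G peptide 110-148; 0% = full assay without inhibitor and 100% = GST in place of GST-Vif; retest series ran down from 100 µM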
ALR inh – blocks human ALR sulfhydryl oxidase activity; purified ALR, DTT oxidation, H2O2 HRP-luminol luminescence; inhibition, % (no concentration beside the values); 3.8% of 290,000 active; AID 485317;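 active = mean and each replicate at 75% or more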;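 note: stock transfer was 7.5 nL into about 7.5 µL; 0% = neutral wells and 100% = wells with inactivated enzyme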
Target sequence (P55789 whole entry, looked up): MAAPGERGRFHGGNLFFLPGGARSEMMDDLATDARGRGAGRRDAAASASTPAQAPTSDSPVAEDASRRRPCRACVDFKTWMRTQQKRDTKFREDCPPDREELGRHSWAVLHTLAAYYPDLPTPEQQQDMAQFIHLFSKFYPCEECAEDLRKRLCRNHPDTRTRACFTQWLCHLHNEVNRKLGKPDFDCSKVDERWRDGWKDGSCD
rRNA inh HTS OD600 – further read-out of rRNA inh HTS, marked with its call; OD600 change, %; measured here: OD600 growth;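 optical density of the mix in the first replicate; 0 = DMSO median and -100 = no signal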
rRNA inh HTS RFP – second read-out of rRNA inh HTS, no call of its own (marks repeat the call); RFP signal change, %; measured here: RFP humanized mutant strains;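 first replicate; 0 = DMSO median and -100 = no signal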
An asterisk follows results filed as active; i = inactive; / = no result given. The list is partial; count on the stated rates, not on these rows.

Letter code: A = FGF22 binding; B = HNF4A DNA FP; C = E coli growth; D = AF4-AF9 inh; E = rRNA inh HTS; F = rRNA inh HTS OD600; G = rRNA inh HTS RFP; H = Vif A3G; I = ALR inh
compound: O=C(C[C@H]1CC[C@H]2[C@@H](COC[C@H](O)CN2Cc2ccc(Oc3ccccc3)cc2)O1)N1CCOCC1
  A = i	B = /	C = /	D = 2.0	E = -3	F = -11	G = 1.9	H = /	I = /
compound: CC1(C(=O)NS(=O)(=O)Cc2cccc(Cl)c2)CCN1C(=O)Cc1ccc(-c2ccccc2)cc1 (stereo not drawn)
  A = i	B = -5.7	C = /	D = -3.1	E = -17	F = -9	G = -2.9	H = /	I = /
compound: CCCCN(C1CCS(=O)(=O)C1)S(=O)(=O)c1ccc(OC)c(OC)c1 (stereo not drawn)
  A = /	B = 4.2	C = 0.66	D = -5.8	E = -1	F = 0	G = -3.1	H = /	I = -4
compound: Cc1ccc(NC(=O)CCC(=O)N2CCC(c3ccccc3)=N2)cc1S(=O)(=O)N1CCCCC1
  A = i	B = 3.1	C = 0.68	D = -1.5	E = 1	F = 11	G = 0.4	H = 0%	I = /
compound: CCOC(=O)c1c(C)[nH]c(C(=O)COC(=O)c2oc3ccc(OC)cc3c2C)c1C
  A = /	B = 1.8	C = 0.74	D = /	E = /	F = /	G = /	H = -10%	I = /
compound: Cc1ccc(SCC(=O)NC(=O)NC(C)C)c(C)c1
  A = i	B = -1.0	C = 0.72	D = -8.7	E = -11	F = -9	G = -3.8	H = -9%	I = -6
compound: CC(C)(O)C#Cc1ccc(C(=O)N2CCC(C(N)=O)(N3CCCCC3)CC2)o1
  A = i	B = -3.8	C = 0.73	D = -15	E = 3	F = 13	G = 0.1	H = /	I = /
compound: C=C(C)C(=O)O[C@H]1C/C(C)=C\C(=O)/C=C(\C)[C@H](O)[C@@H]2OC(=O)C(=C)[C@@H]21
  A = i	B = -3.2	C = /	D = /	E = 7	F = 7	G = -0.4	H = /	I = 29
compound: C[C@@H]1CN([C@H](C)CO)C(=O)Cc2cc(NC(=O)NC3CCCCC3)ccc2O[C@H]1CN(C)S(=O)(=O)c1ccccc1
  A = i	B = /	C = /	D = 1.1	E = -1	F = -2	G = -0.1	H = /	I = /
compound: COC(=O)CN1C(c2ccccc2O)Nc2ccc(Br)cc2C1c1ccccc1 (stereo not drawn)
  A = /	B = 7.4	C = 0.63	D = /	E = /	F = /	G = /	H = /	I = 3
compound: Cc1c(CC(=O)O)c(=O)oc2c(C)c3occ(-c4ccc(F)cc4)c3cc12
  A = i	B = -2.6	C = 0.66	D = -2.4	E = -25	F = -53	G = -11	H = 7%	I = 5
compound: COc1ccc(CCNC(=O)COC(=O)Cc2cc(OC)c(OC)c(OC)c2)cc1
  A = /	B = -1.4	C = 0.72	D = 0.0	E = 16	F = 8	G = -0.3	H = -3%	I = -9
compound: Cc1noc(C)c1NC(=O)Nc1cccc2c1O[C@@H](CN(C)C(=O)NC(C)C)[C@H](C)CN([C@H](C)CO)C2=O
  A = i	B = /	C = /	D = -1.4	E = 3	F = 8	G = -0.4	H = /	I = /
compound: CC(C)C(C)(C#N)NC(=O)CN1C(=O)NC2(CCCc3ccccc32)C1=O (stereo not drawn)
  A = i	B = -3.6	C = 0.74	D = -3.2	E = 6	F = 10	G = 0.9	H = -10%	I = -1
compound: CCC(=O)Nc1ccc2c(c1)OC[C@@H](C)N(Cc1ccccc1OC)C[C@H](C)[C@H](OC)CN(C)C2=O
  A = i	B = /	C = /	D = 0.1	E = -2	F = 0	G = -1.2	H = /	I = /
compound: CCOc1ccc(S(=O)(=O)N2CCN(c3ccccn3)CC2)cc1
  A = i	B = -5.7	C = 0.7	D = -2.1	E = -1	F = 3	G = 3.7	H = /	I = -27
compound: COc1ccc(C(=O)N2CCC(N3CCN(c4ccccc4)CC3)CC2)cc1
  A = /	B = -0.8	C = 0.76	D = /	E = /	F = /	G = /	H = 7%	I = 46
compound: C[C@@H]1CN([C@H](C)CO)C(=O)c2c(c3ccccc3n2C)-c2ccccc2CO[C@H]1CN(C)Cc1ccc(C(=O)O)cc1
  A = i	B = /	C = /	D = 0.0	E = -1	F = 6	G = -3.5	H = /	I = /
compound: COCCN(C(=O)CSc1nnc(Nc2ccccc2F)s1)c1c(N)n(Cc2ccccc2)c(=O)[nH]c1=O
  A = /	B = 5.1	C = 0.67	D = /	E = /	F = /	G = /	H = -6%	I = 2
compound: COc1ccccc1N1CCN(c2nc(C)cc(=O)[nH]2)CC1
  A = i	B = 2.5	C = /	D = -1.5	E = 5	F = 7	G = -3.1	H = /	I = /
compound: CCC(Sc1nc2ccccc2c(=O)n1CC1CCCO1)C(=O)NCc1cccnc1 (stereo not drawn)
  A = /	B = -3.4	C = 0.68	D = /	E = /	F = /	G = /	H = -4%	I = -5
compound: CC(C)CC#Cc1ccc([C@@H]2[C@@H](CO)N3C(=O)CN(C(=O)Nc4cc(F)ccc4F)C[C@@H]23)cc1
  A = i	B = /	C = /	D = -1.2	E = -16	F = -25	G = 2.2	H = /	I = /
compound: CCOP(=O)(Nc1cccc2oc(=O)c3ccccc3c12)OCC
  A = i	B = 4.7	C = /	D = -0.4	E = -3	F = -10	G = 5.7	H = -12%	I = /
compound: O=C(CN1C(=O)c2ccccc2S1(=O)=O)Nc1cc(S(=O)(=O)N2CCCCC2)ccc1Cl
  A = i	B = -2.4	C = 0.7	D = -6.8	E = 0	F = -6	G = 0.4	H = -4%	I = /
compound: Cc1ccc(C(=O)NCCSC(C)(C)C)cc1
  A = /	B = -1.2	C = 0.77	D = /	E = /	F = /	G = /	H = -2%	I = 1

In a second layout: entries from further up.
FGF22 binding	HNF4A DNA FP	E coli growth	AF4-AF9 inh	rRNA inh HTS	rRNA inh HTS OD600	rRNA inh HTS RFP	Vif A3G	ALR inh	SMILES
i	/	/	1.1	-1	-2	-0.1	/	/	C[C@@H]1CN([C@H](C)CO)C(=O)Cc2cc(NC(=O)NC3CCCCC3)ccc2O[C@H]1CN(C)S(=O)(=O)c1ccccc1
/	7.4	0.63	/	/	/	/	/	3	COC(=O)CN1C(c2ccccc2O)Nc2ccc(Br)cc2C1c1ccccc1 (stereo not drawn)
i	-2.6	0.66	-2.4	-25	-53	-11	7%	5	Cc1c(CC(=O)O)c(=O)oc2c(C)c3occ(-c4ccc(F)cc4)c3cc12
/	-1.4	0.72	0.0	16	8	-0.3	-3%	-9	COc1ccc(CCNC(=O)COC(=O)Cc2cc(OC)c(OC)c(OC)c2)cc1
i	/	/	-1.4	3	8	-0.4	/	/	Cc1noc(C)c1NC(=O)Nc1cccc2c1O[C@@H](CN(C)C(=O)NC(C)C)[C@H](C)CN([C@H](C)CO)C2=O
i	-3.6	0.74	-3.2	6	10	0.9	-10%	-1	CC(C)C(C)(C#N)NC(=O)CN1C(=O)NC2(CCCc3ccccc32)C1=O (stereo not drawn)
i	/	/	0.1	-2	0	-1.2	/	/	CCC(=O)Nc1ccc2c(c1)OC[C@@H](C)N(Cc1ccccc1OC)C[C@H](C)[C@H](OC)CN(C)C2=O
i	-5.7	0.7	-2.1	-1	3	3.7	/	-27	CCOc1ccc(S(=O)(=O)N2CCN(c3ccccn3)CC2)cc1
/	-0.8	0.76	/	/	/	/	7%	46	COc1ccc(C(=O)N2CCC(N3CCN(c4ccccc4)CC3)CC2)cc1
i	/	/	0.0	-1	6	-3.5	/	/	C[C@@H]1CN([C@H](C)CO)C(=O)c2c(c3ccccc3n2C)-c2ccccc2CO[C@H]1CN(C)Cc1ccc(C(=O)O)cc1

(continued)
Letter code: A = FGF22 binding; B = HNF4A DNA FP; C = E coli growth; D = AF4-AF9 inh; E = rRNA inh HTS; F = rRNA inh HTS OD600; G = rRNA inh HTS RFP; H = Vif A3G; I = ALR inh
compound: COc1ccc(/C=C(\C#N)C(=O)NCCc2ccccc2)cc1OCc1ccccc1
  A = i	B = 1.1	C = 0.71	D = 0.2	E = 19	F = 20	G = 2.1	H = /	I = 5
compound: CCC(=O)Nc1ccc2c(c1)OC[C@@H](C)N(C(=O)c1ccccn1)C[C@H](C)[C@H](OC)CN(C)C2=O
  A = i	B = /	C = /	D = 0.7	E = 0	F = 3	G = 0.0	H = /	I = /
compound: CCN(CC)S(=O)(=O)c1cccc(NC(=O)COC(=O)c2cc(C)oc2C)c1
  A = /	B = 1.6	C = 0.72	D = /	E = -20	F = -15	G = -8.8	H = 2%	I = 1
compound: Cc1ccc(C(=O)NNc2c3ccccc3nc3ccccc23)cc1
  A = i	B = -4.5	C = 0.68	D = 2.0	E = -12	F = -3	G = -7.6	H = -7%	I = 22
compound: O=C(Cn1ncc(N2CCOCC2)c(Cl)c1=O)c1ccc(Cl)cc1
  A = i	B = -3.0	C = 0.68	D = -1.9	E = 1	F = 19	G = 4.3	H = -14%	I = 0

Assay outcomes as filed in PubChem BioAssay.
